# SmPrx2 inh = Schistosoma Mansoni Peroxiredoxins (Prx2). Potency, µM. AID 448, 2006. hit rate 0.07% among 65,000. S. mansoni Prx2 activity coupled to TGR/GSH (TGR is thioredoxin glutathione reductase), NADPH fluorescence loss, qHTS; some inactives read as strong as hits; active means full or partial inhibition curve with a strong effect at the top dose; inconclusive means weaker partial or single-point curve; inactive means no accepted curve; note: series up to 57 µM; many of its hits are not listed in these tables
#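 qHTS, coupled TGR/Prx2 format; 15 min compound preincubation at RT; reaction started with H2O2 (2.5 mM aliquot); kinetic NADPH fluorescence decrease, ex 365/em 450 nm.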
# Anthrax LT inh = qHTS Assay for Anthrax Lethal Toxin Internalization; Potency, µM (titrated, usually from 40 µM), without a hit: top-dose activity change, negative = inhibition, hits mostly inhibitors; AID 912, 2007; Cells, anthrax lethal toxin internalization, FRET ratio (460/530); hit rate 0.67% among 70,000; active = well fitted falling ratio curve with the 530 nm signal flat; inconclusive = other ratio curves, or a change in one channel alone; inactive = flat curves in the ratio and both channels; the % refers to the ratio; note: % is set by controls: 0 for no effect and ±100 for the full control effect; nearly all actives have a fitted effect of over 50% in size; tested in ME-180 cells; beta-lactamase reporter
# * marks the source's active call; other numbers are inactive results; ? = inconclusive; nt = no result given; [ ] = remark or other dose. Potency is the fitted concentration of half-maximal effect. A portion of the library; the hit share may differ from the screen's.
# Sequence of screens – SmPrx2 inh	Anthrax LT inh
CCOC1(C(F)(F)F)NC(=O)N(Cc2ccc(OC)cc2)C1=O (stereo not given)
 : >57	4%
COc1ccc(C(O)Cc2nc3ccccc3n2C)cc1OC (stereo not given)
 : nt	-5%
COc1cccc(C2C(C(=O)c3sc(C)nc3C)=C(O)C(=O)N2CCN2CCOCC2)c1 (stereo not given)
 : >57	8%
C/C(=C\C(=O)Nc1nccs1)c1ccccc1
 : >57	-6%
CCOC(=O)c1oc2nc(C(C)C)c3c(c2c1N)CCC3
 : >57	5%
Cc1nc2nc(-c3ccccc3)cc(=O)n2[nH]1
 : >57	7%
COc1cccc(OC)c1Oc1ccc(C(F)(F)F)cn1
 : >57	-8%
C=CCn1c(COc2ccc(CC)cc2)nnc1SC/C(O)=C(\C#N)c1nc2ccccc2[nH]1
 : >57	0%
CCc1c(C)nc(SCC(=O)Nc2ccc(Br)cc2)[nH]c1=O
 : >57	-2%
Cc1ccc(S(=O)(=O)N2CCN(C(=O)CSc3nc4ccccc4o3)C2)cc1
 : >57	-7%
CCOCCOC(=O)C1=C(C)N(C)C(=O)NC1c1ccccc1F (stereo not given)
 : >57	-2%
Cc1ccc(C(C(=O)NC2CCCC2)N2CCCCC2)cc1 (stereo not given)
 : >57	-18%
CCOc1ccc(CN2CCN(C(=O)c3ccccc3)CC2)cc1
 : >57	-13%
CCOC(=O)Cc1csc(NC(=O)c2cccc(OC)c2)n1
 : >57	-3%
O=C(O)C1CCN(S(=O)(=O)c2ccc(Oc3ccccc3)cc2)CC1
 : >57	1%
O=C1CC(C(=O)N(c2cccc(F)c2)C(C(=O)NC2CCCC2)c2ccccn2)CS1 (stereo not given)
 : >57	9%
CCS(=O)(=O)N1CCCC(C(=O)NCc2cccnc2)C1 (stereo not given)
 : >57	16%
CCOc1cc(C(=O)N(C)Cc2cc3cc(OC)ccc3[nH]c2=O)cc(OCC)c1OCC
 : >57	5%
CCc1cc2c(=O)c(-c3nc4ccccc4n3C)coc2c(CN2CCN(C)CC2)c1O
 : >57	-7%
Cc1cc(NCCN2CCOCC2)n2c(nc3ccccc32)c1C#N
 : >57	-5%
COC(=O)c1ccc(NS(=O)(=O)c2ccc(SC)cc2)cc1
 : >57	0%
COCCOCC(O)CN1CCN(c2ccc(C)cc2)CC1 (stereo not given)
 : >57	3%
ClC(Cl)(Cl)Cl
 : nt	?
O=C(Cc1cccs1)N1CCCC(c2nc3c(nnn3Cc3ccccc3Cl)c(=O)[nH]2)C1 (stereo not given)
 : >57	?
NC(N)=N/N=C(\c1ccc(Cl)cc1)C1CC1
 : >57	?
Cc1cc(Nc2cccc(F)c2)n2ncnc2n1
 : >57	-7%
O=C(O)c1cc2ccccc2c(Cc2cc3ccccc3c(C(=O)O)c2O)c1O (tested in a mixture with another compound)
 : >57	-7%[3.58 µM]
O=C(c1cccc(F)c1)N1CCC[C@@]2(CCN(Cc3ccccc3)C2)C1
 : >57	-9%
Cc1cc(C(F)(F)F)nn1Cc1ccc(C(=O)NCc2ccco2)o1
 : nt	11%
COc1ccccc1C1(CC(=O)O)CCOC(C(C)C)C1 (stereo not given)
 : >57	3%

# Rewritten as labelled records: four of the compounds above
Cc1cc(C(F)(F)F)nn1Cc1ccc(C(=O)NCc2ccco2)o1
  SmPrx2 inh: nt
  Anthrax LT inh: 11%

O=C(c1cccc(F)c1)N1CCC[C@@]2(CCN(Cc3ccccc3)C2)C1
  SmPrx2 inh: >57
  Anthrax LT inh: -9%

O=C(Cc1cccs1)N1CCCC(c2nc3c(nnn3Cc3ccccc3Cl)c(=O)[nH]2)C1 (stereo not given)
  SmPrx2 inh: >57
  Anthrax LT inh: ?

COc1ccccc1C1(CC(=O)O)CCOC(C(C)C)C1 (stereo not given)
  SmPrx2 inh: >57
  Anthrax LT inh: 3%

# Next section:
# Sequence of screens – SmPrx2 inh	Anthrax LT inh
N[C@H](Cn1ccc(=O)n(Cc2ccccc2C(=O)O)c1=O)C(=O)O
 : >57	-13%
CC1CCN(CCCNC(=O)c2ccc(CS(=O)(=O)Cc3ccccc3F)o2)CC1
 : >57	-7%
Cc1nc2ccc(Cl)cc2[nH]1
 : nt	7%
Cc1cc(C)nc(SC(C)C(=O)Nc2ccc(S(N)(=O)=O)cc2)n1 (stereo not given)
 : >57	2%
COc1ccccc1C(=O)Nc1ccc(C(=O)O)cc1
 : >57	?
Cc1cccc(C)c1NC(=O)CS(=O)CC(=O)NC1CCCc2ccccc21 (stereo not given)
 : >57	-12%
COc1ccc(CCNC(=O)CCn2c(=O)oc3ccccc32)cc1OC
 : >57	-2%
C(=N\n1cnnc1)/c1ccc2ncccc2c1
 : >57	-8%
O=C(Nc1ccc2c(c1)OCO2)c1c(Cl)nc2sccn12
 : >57	10%
CC(C)(Oc1ccc(Cl)cc1)C(=O)Nc1ncccn1
 : nt	-1%
c1ccc(CCCNc2nnnc3ccccc23)cc1
 : >57	-5%[8 µM]
CC12CN3C(O)C(C)(C1)CC(C)(C2)C3O (stereo not given)
 : >57	-7%
CC(=O)NC(CCS(C)(=O)=O)C(=O)Nc1cccc(C)c1C (stereo not given)
 : >57	-6%
CCC(=O)Nc1nc2cc(OC)ccc2s1
 : >57	2%
CN(Cc1ccco1)c1cc(-c2cccnc2)ncn1
 : >57	13%
COCC(=O)N1CCC2(CCCN(C(=O)Nc3cccc(C#N)c3)C2)CC1
 : >57	4%
Cn1c(C(=O)N2CCCC(C(=O)NCCCc3ccccc3)C2)cc2sccc21 (stereo not given)
 : >57	-5%
CC(=O)c1cccc(N=C2C(=O)Nc3ccccc32)c1
 : >57	-2%
O=C(CSc1nc2[nH]ncc2c(=O)n1-c1ccccc1)N1CCCc2ccccc21
 : >57	-16%
COc1ccc(-c2cc(C(=O)NC3CCCC3)no2)cc1OC
 : >57	-7%
O=C(O)c1c(-c2ccccc2)c2oc3ccccc3c2[nH]c1=O
 : >57	-6%
CC(NC(=O)Cn1cc2c(n1)CCCCC2)c1ccccc1 (stereo not given)
 : >57	-12%
CCOc1ccc(C(=O)NCC(C)CN(C)C)cc1OCC (stereo not given)
 : >57	14%
O=S(=O)(c1ccc(Sc2nnc3ccccn23)nc1)N1CCOCC1
 : >57	8%
Cc1cnc(C(=O)Nc2cccc3cccnc23)cn1
 : >57	1%
O=C(NC1=NCCS1)NC12CC3CC(CC(C3)C1)C2
 : >57	3%
O=[N+]([O-])c1c(Cl)cc(Cl)cc1Cl
 : nt	-17%
CCCCNC(=O)c1cc2c(-c3ccc(Cl)cc3)nn(C)c2s1
 : nt	-5%
O=C(NO)c1ccc(OC(F)F)cc1
 : >57	14%
COc1cc(OC)c(C2N(c3cc(C)on3)C(=O)C3CCCN32)cc1OC (stereo not given)
 : >57	-4%
COc1ccc(-c2nc3cnc(N4CCNCC4)nc3n(Cc3cccs3)c2=O)cc1
 : >11	?
Cc1ccc(OCC(=O)OC2CCS(=O)(=O)C2)cc1 (stereo not given)
 : >57	-3%
Cn1nnnc1SCC1=C(C(=O)O)N2C(=O)[C@@H](NC(=O)[C@@H](O)c3ccccc3)[C@@H]2SC1
 : >57	0%[3.58 µM]
CC(Sc1nc(-c2ccccc2)cc(C(F)(F)F)n1)C(=O)N1CCC(C(N)=O)CC1 (stereo not given)
 : >57	-14%
C=CCOc1ccc(/C(O)=C2\C(=O)C(=O)N(CCCOC)C2c2ccc(O)c(OC)c2)cc1 (stereo not given)
 : >57	?
N#CCCn1nnc(-c2ccccc2F)n1
 : >57	-5%
Cc1nc2cc(C(=O)N3CCC4(CC3)OCCO4)ccc2n1-c1ccc(Br)cc1
 : >57	-6%
Cc1c(C(=O)NCC2CCCO2)oc2ccc(S(=O)(=O)N3CC(C)CC(C)C3)cc12 (stereo not given)
 : >57	-7%
CC(C)CCC[C@@H](C)[C@@H]1CC[C@@H]2[C@H]3CC[C@H]4C[C@@H](N)CC[C@@]4(C)[C@@H]3CC[C@]21C
 : >57	-15%[8 µM]
CCOC(=O)CC(=O)CSC1=C(C#N)C(c2ccccc2OC)CC(=O)N1 (stereo not given)
 : >57	?
CCOC(=O)N1CCN(C(=O)c2nn(-c3ccc(C)cc3)c(=O)c3c2c2ccccc2n3C)CC1
 : >57	5%
Cc1noc(C)c1C(=O)N1CCC2(CCN(Cc3nccs3)CC2)CC1
 : >57	?
CCCS(=O)(=O)N1CCCC(C(=O)NCCN2CCCCC2C)C1 (stereo not given)
 : >57	8%
Cc1ccc(Cn2ccc(NC(=O)c3noc4c3CCCCC4)n2)cc1
 : >57	-12%
CCC(=O)Nc1nc(C)cc(SCC(=O)OC)n1
 : >57	4%
CCCCC(=O)Nc1ccc(C(=O)NCc2ccncc2)cc1
 : >57	3%
CC(C)Oc1ccc(C(=O)NCc2cccnc2)cc1
 : nt	-11%
COc1cc(C=O)c([N+](=O)[O-])cc1OC
 : nt	?
COc1ccc(OC)c(N(CC(=O)N2CCCC2)S(=O)(=O)c2ccc(OC)c(OC)c2)c1
 : >57	-1%
N#Cc1cccc(C(c2nnnn2Cc2ccccc2)N2CCCC2)c1 (stereo not given)
 : >57	-6%

# Next part.
# Sequence of screens – SmPrx2 inh	Anthrax LT inh
O=C(Cc1ccccc1)Nc1cccc(-c2nc3ncccc3o2)c1
 : >57	-6%
Cc1ccc(NC(=O)CCC(=O)O)cc1F
 : >57	3%
CC1Cc2nc(SCC(=O)Nc3ccc4c(c3)OCO4)n(-c3ccc(F)cc3)c(=O)c2S1 (stereo not given)
 : >57	8%
CCCCN=C(C)c1c(O)c2ccccc2oc1=O
 : nt	0%
CO[C@H]1[C@H](O)[C@H](O[C@@H]2[C@H](Oc3cccc4c(O)c5c(=O)oc6ccc(C)c7c(=O)oc(c34)c5c67)O[C@@H](C)[C@H](O)[C@H]2O)O[C@@H](C)[C@@H]1O
 : >57	-2%[8 µM]
CCc1nn2c(N3CCOCC3)cc(C)nc2c1-c1ccc(F)cc1
 : >57	-3%
O=C(Nc1ccc2c(c1)OCCO2)c1ccncc1
 : >57	-14%
COc1ccc(CCN2C(=O)CC(Sc3ncccc3C(=O)O)C2=O)cc1OC (stereo not given)
 : >57	0%
O=C1c2ccccc2C(=O)N1CC1c2ccccc2CCN1S(=O)(=O)c1cnc[nH]1 (stereo not given)
 : >57	-2%
Cc1nc(NC2=NCN(CCc3ccccc3)CN2)nc2c(C)cccc12
 : >57	?
O=C(CN1CCN(Cc2ccccc2Cl)C1=O)N1CCCCCC1
 : >57	-7%
O=c1[nH]c2cc3c(cc2cc1CN(CC1CCCO1)S(=O)(=O)c1ccc(Cl)cc1)OCCO3 (stereo not given)
 : >57	-16%
CC(=O)Nc1cccc2c1C(=O)NC2=O
 : >57	4%
CCOC(=O)N1CCC(N2CC34C=CC(O3)C(C(=O)O)C4C2=O)CC1 (stereo not given)
 : >57	4%
CCOC(=O)c1cnn(CCOC(=O)c2cccs2)c1NC(=O)c1cccs1
 : >57	7%
Cn1cccc1C(=O)N1CCC2(CC1)CN(c1ccncc1)C2
 : >57	-5%
N=C(N)SCc1ccc(Cl)cc1Cl (tested in a mixture with another compound)
 : >57	-4%[8 µM]
C=CCSc1ncccc1C(=O)O
 : >57	10%
CCOC(=O)CN1C(=O)C(O)(c2c(C)[nH]c3ccccc23)c2ccccc21 (stereo not given)
 : >57	-11%
COc1ccc(/C(N)=C/C(=O)C(C)(C)C)cc1
 : nt	-15%
O=C(CCCC(=O)N(CC(=O)NC1CCCC1)Cc1ccccc1Cl)Nc1ccccn1
 : >57	?
O=C(CS(=O)(=O)c1cn(Cc2ccccc2Cl)c2ccccc12)N1CCOCC1
 : >57	1%
CCOC(=O)C1CCN(CC(O)COc2ccc(C(C)=O)cc2)CC1 (stereo not given)
 : >57	-11%
CC(C)(CN=C1NS(=O)(=O)c2ccccc21)CNC(=O)CN1C(=O)c2ccccc2C1=O
 : >57	11%
Cc1ccccc1-n1c(=O)cc(N2CCN(C(=O)c3ccco3)CC2)[nH]c1=O
 : >57	12%
CC(=O)c1cccc(N(CC(=O)Nc2cccnc2)S(C)(=O)=O)c1
 : >57	nt
FC(F)(F)c1ccccc1-c1ccc2ncnc(N3CCOCC3)c2c1
 : >57	?
Cc1ccc(C(=O)N(CN2CCCC2=O)c2ccccc2)cc1C
 : >57	2%
CCOC(=O)c1cc2c(n(-c3ccccc3)c1=O)CC(C)(C)CC2=O
 : >57	-2%
Cc1nn(-c2ccccc2)c(C)c1CCC(=O)O
 : nt	-10%
COc1ccc(-c2nc(C#N)c(N3CCOCC3)o2)cc1OC
 : >57	?
c1ccc(Cc2nnc(-c3ccccc3)o2)cc1
 : >57	?
CCOC(=O)c1ccc(NC(=O)CCc2nc(-c3ccccc3Cl)no2)cc1
 : >57	?
CC(=O)Nc1sc(NC(=O)c2ccccc2)nc1-c1cccs1
 : >57	7%
CCN1C=C(Cc2cccs2)C2=C(C1)C(c1cccs1)C(C#N)=C(N)O2 (stereo not given)
 : >57	-29%
C[C@H](C[C@H](N)C(=O)O)C(=O)O
 : >57	-7%
Cc1ccc(N2CCN(c3ccc(C)cc3)C(CC(=O)O)C2=O)cc1 (stereo not given)
 : >57	nt
Fc1cc(F)c2nc(N3CCOCC3)sc2c1
 : >57	2%
CCC(=O)Nc1sc(C(=O)OC)c(C)c1C(=O)OC
 : >57	2%

# Individual results from above.
# c1ccc(Cc2nnc(-c3ccccc3)o2)cc1 – SmPrx2 inh = >57
# Cc1ccc(N2CCN(c3ccc(C)cc3)C(CC(=O)O)C2=O)cc1 (stereo not given) – SmPrx2 inh = >57
